# RanGTP-Impb inh: disruptors of Ran-importin-beta complex formation – biochemical, FRET, CFP-Ran, YFP-importin-beta, homogeneous, primary screen; 300,000 compounds, 1.1% hits; inhibition, % (test concentration not listed); cell-free CFP-Ran/YFP-importin-beta FRET ratio;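 active = most replicates above 15%; inconclusive = exactly half above 15%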;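 also: 0% = DMSO wells and 100% = Ran loaded with GDP instead of GTP; wells of about 40 µL received 100 nL stock; the first replicate is given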
# LANA-H2A inh: blocks KSHV LANA binding to histone H2A/H2B. cell-free LANA-H2A/H2B peptide, fluorescence polarization. AID 2629. Q9QR71. 320,000 compounds, 0.6% hits. inhibition, % (no concentration beside the values); in the data active = inhibition mostly above about 10%, no sharp cut-off; inactive = mostly below about 6.7%;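 also: stock transfer was 7.5 nL into about 10 µL; 0% = median of vehicle wells and 100% = median of positive control wells; one replicate is shown; the record names a cut of 25% in any replicate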
# Target sequence (Q9QR71 whole entry, looked up): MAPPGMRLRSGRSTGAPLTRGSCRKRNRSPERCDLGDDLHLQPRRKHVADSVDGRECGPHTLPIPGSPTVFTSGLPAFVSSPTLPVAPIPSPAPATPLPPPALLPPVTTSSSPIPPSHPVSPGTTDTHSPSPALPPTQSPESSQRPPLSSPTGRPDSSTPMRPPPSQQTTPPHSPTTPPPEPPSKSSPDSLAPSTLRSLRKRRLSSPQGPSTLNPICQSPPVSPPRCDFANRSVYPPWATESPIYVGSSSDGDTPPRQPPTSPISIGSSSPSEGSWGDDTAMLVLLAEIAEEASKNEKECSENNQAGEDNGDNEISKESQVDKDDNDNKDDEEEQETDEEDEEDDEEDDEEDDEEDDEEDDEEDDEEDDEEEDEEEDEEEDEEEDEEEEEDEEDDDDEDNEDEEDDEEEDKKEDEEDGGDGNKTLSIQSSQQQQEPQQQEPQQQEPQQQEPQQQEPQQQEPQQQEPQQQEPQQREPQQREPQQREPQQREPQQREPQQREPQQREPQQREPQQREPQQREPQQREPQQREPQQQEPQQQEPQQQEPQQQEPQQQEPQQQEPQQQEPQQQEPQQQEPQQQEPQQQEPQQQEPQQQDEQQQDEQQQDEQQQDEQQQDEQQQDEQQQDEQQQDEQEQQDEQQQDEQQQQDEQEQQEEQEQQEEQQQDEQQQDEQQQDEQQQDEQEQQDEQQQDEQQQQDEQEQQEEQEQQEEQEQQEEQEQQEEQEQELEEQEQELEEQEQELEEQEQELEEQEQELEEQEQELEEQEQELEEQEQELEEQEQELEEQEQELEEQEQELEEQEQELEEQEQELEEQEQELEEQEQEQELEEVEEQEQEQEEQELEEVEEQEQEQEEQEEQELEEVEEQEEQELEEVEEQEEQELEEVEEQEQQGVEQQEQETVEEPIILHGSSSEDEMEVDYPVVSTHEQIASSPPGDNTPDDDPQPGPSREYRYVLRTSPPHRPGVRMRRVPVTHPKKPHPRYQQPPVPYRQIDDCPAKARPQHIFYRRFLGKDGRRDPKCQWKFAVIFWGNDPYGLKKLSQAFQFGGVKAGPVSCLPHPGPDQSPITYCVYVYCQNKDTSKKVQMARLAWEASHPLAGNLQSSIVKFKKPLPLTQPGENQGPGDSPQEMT
# Calb FLC: affects C. albicans growth with fluconazole. C. albicans CaCi-2 (fluconazole-resistant clinical isolate) + fluconazole, Alamar Blue growth, 48 h. AID 1979. growth inhibition, % (test concentration not listed). 300,000 compounds, 0.57% hits;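 active = most replicates above 75%; inconclusive = exactly half above 75%; inactive = most below 75%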;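 also: all wells also contain fluconazole at 8 µg/ml as a sub-toxic cotreatment; 0% = median of DMSO wells and 100% = median of geldanamycin control wells; wells of about 8 µL received 7.5 nL stock; the first replicate is given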
# ALR inh: blocks human ALR sulfhydryl oxidase activity; P55789; purified ALR, DTT oxidation, H2O2 HRP-luminol luminescence; inhibition, % (test concentration not listed); 290,000 compounds, 3.8% hits;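 active = mean and each replicate at 75% or more; inconclusive = only one of the two met; inactive = neither met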;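 also: stock transfer was 7.5 nL into about 7.5 µL; 0% = neutral wells and 100% = wells with inactivated enzyme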
# B2AR ag: agonists of human beta-2 adrenergic receptor inducing internalization. Am2.2-beta2AR cells, FAP receptor internalization, flow cytometry; reference of the scale not given here. 340,000 compounds, 0.43% hits. AID 504454. response, % (concentration not given with the values). P07550;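 active = response above a set limit, near 3 SD of response in nonfluorescent compounds, cut at about 42% in these data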;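 also: stock transfer was 100 nL into about 11 µL; a reference agonist was the positive control; negative values mostly stem from fluorescent compounds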
# Vif A3G: HIV-1 Vif–A3G interaction blockers – biochemical, TR-FRET, GST-Vif 1-94, biotin-A3G peptide, dose response retest, primary screen (AID 1117319); TR-FRET GST-Vif / biotin-A3G peptide binding; higher % means a stronger effect; test concentration not given here; strong numbers were not always called active; inhibition, %; hits with a dose series show IC50 in µM; 260,000 compounds, 0.57% hits;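 active = above the screen mean plus three standard deviations and confirmed in dose response; inconclusive = results disagree or hit not tested in dose response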;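 also: Vif residues 1-94 fused to GST binding biotinylated APOBEC3G peptide 110-148; 0% = full assay without inhibitor and 100% = GST in place of GST-Vif; retest series ran down from 100 µM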
# HNF4A DNA FP: change in binding of human HNF4 alpha to DNA. 360,000 compounds, 0.3% hits. HNF4a-FITC DNA binding, fluorescence polarization, 1 h. AID 1224865. activity change, % at 10 µM. P41235; in the data active = activity change above about 30%, passing the limit was not always enough;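 also: controls were the assay level and a saturating level of protein; the project sought stronger binding though the title names inhibitors; some compounds called inactive have numbers as strong as hits; positive values seem to mean higher polarization but the record does not say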
# * = called active by the depositor; ? = inconclusive; / = no result given; & = joins results of further samples. Compounds were not picked by outcome; overall some 6.3% were active at least once.
SMILES,RanGTP-Impb inh,LANA-H2A inh,Calb FLC,ALR inh,B2AR ag,Vif A3G,HNF4A DNA FP
CCOc1ccc(C2C3=C(CCCC3=O)Nc3nc(C(F)(F)F)nn32)cc1OC (stereo not given),-1.7,-3.8,-14,1,-8,8%,-1.0
COc1ccc(-c2cn(-c3ccccc3)nc2C(=O)O)cc1OC,0.9,1.8,2,4,-1,2%,-0.3
COc1ccc(CC(=O)Nc2cc(Cl)ccc2N2CCCC2)cc1,2.0,-0.4,-2,22,-16,/,-0.2
COc1ccc(/C=C(/NC(=O)c2cccc([N+](=O)[O-])c2)C(=O)O)cc1,5.8,0.5,6,9,-3,-5%,0.9
Cc1ccc(OCc2cc(C(=O)NC(C)Cc3cccnc3)no2)cc1C (stereo not given),-1.2,0.5,5,-1,-2,/,1.0
CN(Cc1ccc(F)cc1Cl)S(=O)(=O)c1cccs1,-0.2,0.6,11,-3,21,/,5.5
O=C1CCCN1CCCNc1ccc(S(=O)(=O)N2CCCCC2)cn1,-1.6,-0.1,?,-7,7,26%,-4.0
O=C(NCc1cccc(CNC(=O)c2ccco2)c1)c1ccco1,6.6,-0.9,0,-3,-5,3%,0.7
CC(=O)c1ccc(Cc2cnc(N)s2)cc1,/,-0.4,-3,14,2,14%,0.8
CC(C(=O)Nc1ccc(N2CCOCC2)cc1)N1C(=O)c2ccccc2C1=O (stereo not given),-4.2,3.3,-1,4,5,18%,2.0
CCc1cc(C(=O)N/N=C/c2ccc(O)cc2)c2ccccc2n1,-3.5,-4.3,-4,29,-5,/,-3.1
COc1ccc(S(=O)(=O)N2CCC(NC(=O)N3CCOCC3)CC2)cc1,3.3,4.5,2,-2,-3,0%,1.7
CC(=O)Nc1cccc(NC(=O)Nc2cccc3ccccc23)c1,2.3,0.1,-4,-1,8,1%,-0.6
COc1cc(/C=N/NC(=O)c2ccncc2)ccc1OCC(=O)Nc1cccc([N+](=O)[O-])c1,9.2,-1.3,-4,/,21,6%,-1.4
FC(F)(F)c1ccc(CN2C[C@@H]3C(c4ccc(Cl)nc4)C4(c5cccnc5)CC3(C4)[C@H]2c2ccccc2)cc1 (stereo not given in full),0.6,-2.0,-6,-20,/,/,/

# 6 of the compounds above, tab-delimited.
SMILES	RanGTP-Impb inh	LANA-H2A inh	Calb FLC	ALR inh	B2AR ag	Vif A3G	HNF4A DNA FP
COc1ccc(CC(=O)Nc2cc(Cl)ccc2N2CCCC2)cc1	2.0	-0.4	-2	22	-16	/	-0.2
CCc1cc(C(=O)N/N=C/c2ccc(O)cc2)c2ccccc2n1	-3.5	-4.3	-4	29	-5	/	-3.1
CC(=O)Nc1cccc(NC(=O)Nc2cccc3ccccc23)c1	2.3	0.1	-4	-1	8	1%	-0.6
CC(C(=O)Nc1ccc(N2CCOCC2)cc1)N1C(=O)c2ccccc2C1=O (stereo not given)	-4.2	3.3	-1	4	5	18%	2.0
COc1cc(/C=N/NC(=O)c2ccncc2)ccc1OCC(=O)Nc1cccc([N+](=O)[O-])c1	9.2	-1.3	-4	/	21	6%	-1.4
Cc1ccc(OCc2cc(C(=O)NC(C)Cc3cccnc3)no2)cc1C (stereo not given)	-1.2	0.5	5	-1	-2	/	1.0

# The list continues:
SMILES,RanGTP-Impb inh,LANA-H2A inh,Calb FLC,ALR inh,B2AR ag,Vif A3G,HNF4A DNA FP
COc1ccc(CCn2c(O)cc3nn(-c4nc5ccccc5s4)c(=O)c-3c2C)cc1,4.5,1.5,7,19,-28,?,-31
CCOC(=O)N1CCC(Nc2c(N3CCN(c4cc(Cl)ccc4C)CC3)c(=O)c2=O)CC1,7.1,2.9,-8,3,-1,7%,2.9
CN(CC(=O)N1CCN(c2ccccn2)CC1)S(=O)(=O)c1cccc2nsnc12,3.4,/,-6,/,8,4%,-0.5
O=C(O)CCCn1c(=O)[nH]c2ccccc2c1=O,-2.3,7.4,-12,-5,1,-3%,0.5
COc1ccc(C(=O)Nc2c(O)ccc3ccccc23)cc1,1.9,-4.6,-2,-45,3,/,6.1
COc1ccc(C2CC(C(F)(F)F)n3ncc(C(=O)NCc4cccnc4)c3N2)cc1OC (stereo not given),-193,1.0,30,-6,1,4%,4.0
CC(O)c1nc2ccccc2n1CC(=O)Nc1ccc2c(c1)OCCO2 (stereo not given),-3.5,-13,1,3,1,-3%,-1.3
Cc1n(C)c2cc(Cl)ccc2[n+]1Cc1ccccc1,-1.2,-1.6,-16,-13,4,/,-4.2
CCCN1CCN(C(=O)C2CCN(S(=O)(=O)c3ccc4c(c3)NC(=O)C(C)S4)CC2)CC1 (stereo not given),-2.0,-9.3,-6,-18,22,/,24
[O-][n+]1ccccc1SC/C=C/c1ccccc1,?,-4.8,-4,-17,2,/,-4.8
Cc1c(C)c2cc(Cl)c(O)c(CN3CCCCC3)c2oc1=O,?,3.7,2,/,/,-8%,/
CCOC(=O)N1CCc2c(sc(NC(C)=O)c2C(N)=O)C1,2.8,3.1,9,/,-2,/,0.7
CC(C)c1ccc(OCC(=O)N2CCc3ccccc3C2)cc1,-0.5,-1.8,0,-4,1,-1%,3.5
COc1ccc(S(=O)(=O)N2CCC(CN3C(=O)c4cccc5cccc(c45)C3=O)CC2)cc1,5.2,-1.7,-2,-8,1,/,-0.5
COC(=O)CCCC(=O)N1CCC(n2nccc2NC(=O)CCOc2ccccc2)CC1,0.0,-3.4,10,-1,-1,2%,1.2
Nc1ncnc(Nc2cc(C(F)(F)F)cc(C(F)(F)F)c2)n1,2.9,-4.1,-12,/,-9,11%,-0.8
C=CCc1cc(Cl)ccc1OCCCNC(C)C,0.6,-1.1,-15,-5,62*,14%,-3.9
CCOc1ccc(N2C(=O)CC(NCC#N)C2=O)cc1 (stereo not given),1.1,-0.9,10,-6,-4,/,1.1
CCOC(=O)N1CCN(C(=O)COc2cc(C)c(Cl)c(C)c2)CC1,0.3,4.2,24,-10,1,15%,2.1
COc1ccc(C(=O)CN2C(=O)NC3(CCCc4ccccc43)C2=O)cc1OC (stereo not given),-1.0,-1.3,21,4,4,0%&-7%,3.8
COc1ccc(/C=C/C(=O)Nc2nc(N)n(-c3ccccc3)n2)cc1,5.4,0.6,32,13,-6,11%,0.3
N#Cc1ccc(C(=O)OCC(=O)Nc2ccc(S(N)(=O)=O)cc2)cc1,0.1,-7.1,7,-3,-5,15%,-3.6
CCn1c(SCC(=O)Nc2c(C)n(C)n(-c3ccccc3)c2=O)nc2c1c(=O)n(C)c(=O)n2C,1.3,7.9,-13,-11,-3,/,1.6
COc1ccc(COC(=O)C2=C(C)NC(=O)NC2c2cc(Br)c(O)c(OC)c2)cc1 (stereo not given),-2.4,2.5,0,31,6,3%,0.6
COc1cc(C(c2c(O)nc(SC)[nH]c2=O)c2c(O)nc(SC)[nH]c2=O)cc(OC)c1OC,-0.6,-0.2,-1,19,-7,/,3.1
N#CC(c1ccccc1)c1cccc(Cl)n1 (stereo not given),-1.7,-0.9,-24,-17,0,/,-2.5
CCCN1CNC(=S)N(c2ccccc2OC)C1,4.8,-4.7,-3,-14,6,7%,3.9
O=C(CCCC(=O)Nc1cccnc1)Nc1cccnc1,-2.3,-1.5,0,-10,5,17%,-0.5
Cc1nc(NCCc2ccccc2)c2oc3ccccc3c2n1,?,-5.3,?,25,-4,-1%,1.9
Cc1cnc(C(=O)Nc2nnc(C(C)C)s2)cn1,-0.2,1.2,-5,/,-5,-8%,2.4
O=C(N/N=C/c1cccs1)c1ccc2c(c1)OCO2,4.5,0.2,-4,4,-13,/,-1.1
COc1cc(C2C=C(Nc3ccccc3)C(=O)N2c2ccccc2)ccc1O (stereo not given),0.6,0.6,-21,36,10,11%,-1.4
CNC(=O)C1CCN(S(=O)(=O)c2c(C)noc2/C=C/N(C)C)CC1,?,0.9,-1,18,-4,/,2.5
COc1cc(/C=C/C(=O)O)cc(S(=O)(=O)N2CCN(S(=O)(=O)c3ccc(Cl)cc3)CC2)c1OC,4.3,0.7,2,-1,2,0%,1.7
CCCCCCCN1C/C=C\C(c2ccc(OC)cc2)N(Cc2ccc(F)cc2)C(=O)[C@H]1Cc1ccccc1 (stereo not given in full),-6.1,-4.2,-7,4,0,/,0.3
CC(=O)Nc1ccc(NC(=O)C(C)OC(=O)c2ccccc2NS(=O)(=O)c2cccs2)cc1 (stereo not given),-0.1,-2.1,0,-9,-5,-1%,0.6
C=CCn1c(SCc2ccccc2C#N)nnc1-c1cc(Br)ccc1O,4.4,-3.7,-10,9,9,3%,3.6
C#CCOCCOCCOCCNc1nc(N2CCN(C(=O)CCCCCCCCCCNC(=O)[C@H]([C@@H](C)CC)n3cc(CCCCN=C(N)N)nn3)CC2)nc(N2CCN(C(=O)CCCCCCCCCCNC(=O)[C@@H]([C@H](C)O)n3cc(C)nn3)CC2)n1,/,0.2,/,-2,104*,/,186
O=C1CC(NCCc2ccccc2)C(=O)N1CCc1ccccc1 (stereo not given),0.4,0.3,-4,-1,1,/,1.5
Cn1c(SCc2nc(-c3ccc(Br)cc3)no2)nnc1-c1ccco1,1.6,-0.6,34,/,-10,-3%,-0.7
CC(C)NC(=O)NC(=O)COC(=O)Cc1c(F)cccc1Cl,2.4,1.8,-5,-8,8,-2%,1.6
O=C(Cc1cccs1)Nc1ccccc1-c1nc2ccccc2[nH]1,2.9,-3.3,-3,1,/,-13%,/
COC(=O)c1ccc(CSc2nc(N3CCOCC3)c3c(c2C#N)CC(C)(C)OC3)o1,-4.1,-2.4,-4,-3,7,?,0.7
C/C(=N/NC(=O)C(=O)N/N=C(/C)c1ccccc1)c1ccccc1,1.5,0.3,27,17,/,8%,/
N#Cc1ccccc1S(=O)(=O)N1CCN(CC(O)COc2ccccc2F)CC1 (stereo not given),2.1,-1.1,6,-9,3,-10%,2.6
CCC(=O)NCCc1nc2ccccc2[nH]1,-2.2,4.0,5,-11,-1,-1%,-0.3
O=C(c1ccccc1)C(Nc1ccccn1)c1ccccc1 (stereo not given),1.9,-0.3,20,0,4,-4%,0.2
O=C(O)Cc1ccc(N=Cc2c(O)ccc3ccccc23)cc1,0.5,0.8,18,-26,2,6%,12
CC1(C(=O)N/N=C/c2ccccc2)CC1(Cl)Cl (stereo not given),-1.7,-2.8,-7,-10,2,/,-6.3
CN(CCC1CCCCO1)C(=O)CCc1nnc(CCc2ccccc2)o1 (stereo not given),5.8,2.6,-3,-5,-4,/,1.4
CC(=O)CCc1c(C)c2cccc(C)c2[nH]c1=O,-4.0,1.5,-2,1,4,-1%,-5.5
CC1CCCCC1NC(=O)C1CCCN(S(=O)(=O)c2ccc(-n3cnnn3)cc2)C1 (stereo not given),2.9,-1.0,24,-7,-2,9%,4.5
Cc1cnc(NC(=O)COc2ccccc2Cl)s1,1.6,0.7,-4,-5,2,6%,-0.3
Cc1[nH]nc2cn[nH]c12,0.5,2.2,10,-21,-2,6%,-1.0
O=C(NCCCN1CCOCC1)C(=O)N/N=C/c1ccccc1O,?,-2.1,-3,5,-3,-5%,-0.5
COc1ccc(NC(=O)CSc2nccn2-c2ccccc2)cc1,-0.9,-6.7,-4,75,-4,3%,2.1
CCSc1ccccc1C(=O)N1CCC2(CC1)CC(=O)c1ccccc1O2,-0.5,1.8,-6,-2,-6,0%,-1.0
CC(/C=N/Nc1nnc(C)c(=O)[nH]1)=C\c1ccccc1,3.9,2.2,23,/,-2,?,-4.2
COc1ccccc1OCC(=O)Nc1ccc(N2CCCCC2)cc1,1.9,1.2,1,67,18,0%,15
CCOC(=O)COc1cccc2c(=O)n(CC(=O)NCc3ccc(F)cc3)ccc12,1.3,-0.6,2,0,51*,0%,-3.9
COc1ccc(C2=CC(=O)C[C@H](c3ccc(F)cc3)C2)c(OC)c1,/,-1.7,/,5,-19,/,1.8
CC(C)CN1C(=O)C(=O)N(CC(=O)c2ccc3c(c2)CCCC3)C1=O,/,2.7,/,16,-7,/,0.9
